Bioassay records as filed in PubChem.
VACV mCherry inh: qHTS for Stage-Specific Inhibitors of Vaccinia Orthopoxvirus: mCherry Reporter Primary qHTS; Vaccinia virus mCherry reporter infection, fluorescence; about a quarter of the inactives have no number; Potency, µM (highest dose often 36.5 µM), inactives show at the top dose activity change, negative = inhibition, hits mostly inhibitors; actives 0.63% (n = 310,000); active = well fitted inhibition curve with a large enough effect; inconclusive = small, poorly fitted or top-dose-only effect; inactive = no such curve, though single readings can be large or run the other way; tested in A549 cells; further: nearly all actives have a fitted effect of over 35% in size; inactives centre near -10
Vaccinia Venus: qHTS for Stage-Specific Inhibitors of Vaccinia Orthopoxvirus: Venus Reporter Primary qHTS; Vaccinia virus Venus reporter expression, fluorescence; Potency, µM (series often up to 36.5 µM), for the others: at the highest dose activity change, negative = inhibition, usual class: inhibitors; actives 0.46% (n = 330,000); AID 720580, 2013; active means well fitted inhibition curve with a large enough effect; inconclusive means small, poorly fitted or top-dose-only effect; inactive means no such curve, though single readings can be large or run the other way; tested in A549 cells; further: nearly all actives have a fitted effect of over 30% in size; inactives centre near -10
* hit, by the source's call; i = inactive; ? = inconclusive; nt = no result given; & = joins results of further samples; [ ] = another dose, or the depositor's remark. On the % scale 0 is the no-effect control and ±100 the full control effect; potency means the concentration at half of the fitted maximal effect.

SMILES	VACV mCherry inh	Vaccinia Venus
NC(N)=NCCCCN=C(N)N	i	0.0%&-8.1%
CCn1cc(S(=O)(=O)NC2CCCCC2)cn1	-0.1%	4.1%
O=C(NNC(=O)C1CC(=O)N(Cc2ccccc2)C1)c1ccc(F)cc1 (configuration not stated)	-18.9%	-12.5%
CCc1n[nH]c2c1C(=O)CC(C)(C)C2	nt	-10.0%
CCc1ccc(/C=C2\SC(N3CCOCC3)=NC2=O)cc1	-0.7%	-20.2%
Cc1ccc(S(=O)(=O)N(CC(=O)NN=C2CCN(C)CC2)c2ccc(F)cc2)cc1	-8.4%	-6.8%
Cc1ccc(S(=O)(=O)CC(=O)Nc2nnc(C(C)C)s2)cc1	18.0%	-5.1%
COc1cc(C)cc2c1OC(c1ccccc1)CC2=O (configuration not stated)	-2.8%	7.4%
CCOC(=O)C1(Cc2ccccc2)CCN(Cc2nccn2CC)CC1	-9.1%	5.9%
Cc1ccc(C(=O)NCC(=O)N2CCCC(C(F)(F)F)C2)s1 (configuration not stated)	i	-17.8%
COc1ccc2c(c1)c1nc3ccccc3nc1n2CCCN1C(=O)c2ccccc2C1=O	i	-3.4%
COc1ccc(C2NN=C(c3ccc(C)cc3)S2)cc1OC (configuration not stated)	-8.4%	0.0%
COc1cccc(Oc2nc3c(c(=O)n(Cc4ccccc4F)c(=O)n3C)n2C)c1	-16.9%	0.6%
Cc1nc2ccccc2n1CC(=O)NC1CCCC1	i	13.7%
CC(C)Oc1ccc(CCC(=O)N/N=C/c2ccncc2)cc1	-7.3%	-8.5%
CCN1CCN(c2ccc(S(=O)(=O)N3CCOCC3)cc2NC(=O)c2ccc(C)c(C)c2)CC1	-25.7%	-4.0%
CN(C)c1ccc(NC(=O)CSC2=Nc3ccccc3C3=NC(CC(=O)NCc4ccc5c(c4)OCO5)C(=O)N23)cc1 (configuration not stated)	-8.7%	-9.6%
COC(=O)c1ccc(OC(=O)CS(=O)c2ccccc2[N+](=O)[O-])cc1 (configuration not stated)	-20.7%	-2.1%
CCC(CC)C(=O)Nc1ccccc1C(=O)OCc1cc(=O)n2nc(C3CCCCC3)sc2n1	-29.4%	-29.0%
CSCCC(NS(=O)(=O)c1ccc(C)cc1)C(=O)N(C)CC(=O)Nc1ccccc1Br (configuration not stated)	-15.5%	-10.7%
Cc1ccc2c(c1)CN(CCNC(=O)c1cccc(Cn3cccn3)c1)CC(C)O2 (configuration not stated)	-5.9%	-5.6%
CCC(C)c1ccc(NC(=O)NCCN2CCCCC2)cc1 (configuration not stated)	-17.1%	-25.3%
COc1cc([N+](=O)[O-])ccc1NC(=O)CN1CCN(C(=O)c2ccco2)CC1	3.3%	-7.6%
O=C(NCCc1c[nH]c2ccccc12)/C(=C/c1ccco1)NC(=O)c1ccco1	i	8.5%
COCCNC(=O)CCn1c(=O)c2cc(OC)c(OC)cc2n(CC(=O)Nc2ccccc2C)c1=O	-4.3%	-12.5%

The last four compounds of the section before lead into the next:
SMILES	VACV mCherry inh	Vaccinia Venus
CCC(C)c1ccc(NC(=O)NCCN2CCCCC2)cc1 (configuration not stated)	-17.1%	-25.3%
COc1cc([N+](=O)[O-])ccc1NC(=O)CN1CCN(C(=O)c2ccco2)CC1	3.3%	-7.6%
O=C(NCCc1c[nH]c2ccccc12)/C(=C/c1ccco1)NC(=O)c1ccco1	i	8.5%
COCCNC(=O)CCn1c(=O)c2cc(OC)c(OC)cc2n(CC(=O)Nc2ccccc2C)c1=O	-4.3%	-12.5%
CCNC(=O)C1CCCN(C(=O)c2ccc(OC)c(OC)c2)CC1 (configuration not stated)	24.3%	-7.8%
C=CC[C@H](CC(=O)NCCO)C(=O)N[C@@H](COC(=O)[C@H](CC=C)CC(=O)OC(C)(C)C)Cc1ccccc1	i	-18.0%
COC(=O)c1ccsc1NC(=O)c1cccc(OC)c1	3.2%	-6.7%
O=C(CSc1ccc(-c2ccccc2)nn1)c1cccs1	i	-11.5%
CCOC(=O)N1CCN(c2ccc(O)cc2)CC1	?	-21.8%
Cc1ccc2[nH]c(=O)c(CN(CCc3ccccc3)Cc3nnnn3CC3CCCO3)cc2c1 (configuration not stated)	-21.8%	-10.9%
COC(=O)c1ccc(NC(=O)COc2ccc(S(=O)(=O)NC(C)C)cc2)cc1	-12.4%	-9.1%
NS(=O)(=O)c1ccc(NC(=O)CN2CCN(Cc3ccccc3)CC2)cc1	nt	-21.5%
O=C(Nc1ccc2nc(-c3cccnc3)[nH]c2c1)C1CCCCC1	nt	-17.1%
CC1=CCC(C(=O)O)C(C(=O)Nc2ccc(-c3nc4ccc(C)cc4s3)cc2)C1 (configuration not stated)	-1.4%	-4.3%
CC(=O)c1cc(-c2ccccc2)n(CC(=O)NCc2ccccc2C)c1C	-10.4%	-13.5%
CCNc1ccccc(-c2ccc3ccccc3n2)c1=O	-1.6%	6.7%
Cc1cc(CNCCN(C)C)c(C)n1-c1cc(S(=O)(=O)N2CCOCC2)ccc1N1CCCC1	-21.9%	-6.1%
O=S(=O)(c1ccc(S(=O)(=O)N2CCN(C3CCCCC3)CC2)cc1)N1CCCCCC1	-16.3%	-4.1%
Cc1ccccc1NC(=O)CSc1nc2ccc(NC(=O)COc3ccccc3F)cc2s1	i	-15.6%
COc1ccc(NC(=O)COc2ccc(/C=C/c3cccc[n+]3C)cc2OC)cc1	-10.9%	-3.4%
O=C(NC(=S)N1CCCc2ccccc21)c1ccccc1	-7.1%	-10.4%
CN1C(=O)C(CC(=O)Nc2ccccc2F)N(NC(=O)c2ccc(Br)cc2)C1=S (configuration not stated)	-8.4%	-11.4%
COc1ccc(C[C@H]2CN3C(=NC[C@@H]3C(C)C)N2CCNC(=O)c2ccc(C)c(Br)c2)cc1	-28.5%	?
Cc1cccc(-n2nc3c(c2NC(=O)CCC2CCCCC2)CS(=O)C3)c1C (configuration not stated)	-27.7%	-13.6%
O=c1[nH]c2cccnc2n1-c1ccc([N+](=O)[O-])cc1	-18.1%	-14.6%
COc1ccccc1C(=O)NCCC(=O)NCCCSc1ccccc1	i	-7.8%
COc1ccc(CNC(=O)C2CCN(Cc3nc(-c4ccc(Cl)cc4)oc3C)CC2)cc1	?	?
Clc1ccc(CN2C3=NCCCN3c3ccccc32)c(Cl)c1	-21.7%	-16.9%
CC(=O)Nc1ccc(S(=O)(=O)N(C#N)c2nc(N(C)C)nc(N(C)C)n2)cc1	-6.8%	-6.1%

(listing goes on)
SMILES	VACV mCherry inh	Vaccinia Venus
CN(C)S(=O)(=O)c1cccc(-c2nn(-c3ccccc3)cc2/C=C(/C#N)C(=O)NCc2ccco2)c1	-3.9%	-15.9%
CCn1cc2c(n1)-c1c(oc(C(=O)Nc3ccc(Br)cc3F)c1C)CC2	-6.9%	-7.7%
CSc1ncc(CN2CCC(C(=O)Nc3cccc(-c4cscn4)c3)CC2)cn1	-19.2%	-29.9%
COc1ccc(C(C)=O)cc1COC(=O)[C@H](Cc1ccccc1)NC(=O)c1ccco1	i	-12.5%
CN1CCN(CC/C=C2/c3ccccc3Sc3ccc(S(=O)(=O)N(C)C)cc32)CC1	-25.2%	?
Cc1ccc(/C=C2/SC(=S)N(CCC(=O)N3CCOCC3)C2=O)cc1	?	-4.7%
NC(=O)CC(NC(=O)Cc1ccc(Br)cc1)c1ccc(N2CCC(Br)CC2)c([N+](=O)[O-])c1 (configuration not stated)	i	?
Brc1ccc2ncnc(NCc3ccco3)c2c1	-0.8%	-27.3%
Cc1ccc(S(=O)(=O)N2CCN(Cc3nc4ccccc4n3C)CC2)cc1	-10.9%	-8.2%
Cn1c(=O)c2c(nc(Oc3ccc(F)cc3)n2Cc2ccc(F)cc2)n(C)c1=O	-13.6%	-4.7%
O=C(COc1ccc2c(c1)CCC2)NCc1ccccc1	i	-15.9%
Cc1nc(NC(=O)C(C)(C)C)sc1-c1csc(N)n1	-16.9%	-21.9%
CCCc1cc(=O)n2[nH]c(-c3ccccc3)cc2n1	nt	-1.5%
C[C@@H]1CCCN1[C@@H]1CS(=O)(=O)N[C@H]1COCc1ccccc1	10.1%	2.6%
COc1cc(CCCN2C(=O)C(=O)NC[C@@H]2Cc2ccc(O)cc2)cc(OC)c1OC	-12.2%	0.3%
O=C1NC[C@H](CCCCN2CCN(CCc3ccccc3)C(=O)C2=O)N(CCc2ccccc2)C1=O	3.2%	7.9%
O=C(OCc1ccc(Br)cc1)c1cccnc1	-13.5%	-17.3%
CC(=O)Nc1cc(OC(=O)c2ccco2)cc(OC(=O)c2ccco2)c1	nt	-17.1%
Cc1cn(C)c(CC(=O)NCc2cccc(Cl)c2)c1C(=O)O	-7.0%	-5.5%
CCOC(=O)C(=NO)C1=CSC2=NNC(C)(C)N12	?	?
Cc1ccccc1C(=O)N1CCC(C(=O)N2CCN(Cc3ccc4c(c3)OCO4)CC2)CC1	-6.4%	-4.7%
Cc1nonc1C1CCCN1C(=O)c1cc(COc2ccc(F)cc2Cl)on1 (configuration not stated)	?	-18.5%
C/C(=N\NC(=O)c1cc(-c2cccnc2)nc2ccccc12)c1ccc(O)cc1O	11.2µM*	?
CC(=O)c1cccc(NC(=O)N2CCN(S(C)(=O)=O)CC2)c1	?	-2.9%
COC(=O)c1cnn(-c2ccccc2)c1-n1cccc1C=O	-1.7%	-11.7%

Other compounds follow.
SMILES	VACV mCherry inh	Vaccinia Venus
COc1ccc(C2Sc3ccccc3NC3=C2C(=O)c2ccccc23)c(OC)c1OC (configuration not stated)	-24.0%[7.34 µM]	-20.4%[7.34 µM]
CCOc1ccccc1CNC(=O)c1oc2ccc3c(c2c1C)C(=O)CC(C)(C)O3	-17.6%	-16.8%
O=C(CSc1cccc(C(F)(F)F)c1)NC(=O)c1ccccc1	i	-14.8%
COc1ccccc1C(=O)C1CCCN(Cc2cccc3nccnc23)C1 (configuration not stated)	i	-7.4%
C=C(C)c1cccc(C(C)(C)NC(=O)NCCCn2ccnc2)c1	-6.9%	-21.1%
CSc1ccc(CNCC2CCCO2)cc1 (configuration not stated)	i	-12.3%
CN(C)c1ccc([P+](=O)c2ccc(N(C)C)cc2)cc1	-17.1%	-4.1%
CC1CCCN(c2c([N+](=O)[O-])cc(C(=O)O)cc2[N+](=O)[O-])C1 (configuration not stated)	i	-7.4%
c1ccc(-c2cc3ccccc3nc2N2CCCC2)cc1	nt	-12.6%
Cc1ccc(CN2CCOc3ccc(CN4CCC(O)(c5cccnc5)CC4)cc3C2)cc1C	-22.4%	?
CC(C)Oc1ccc(C(=O)OCC(=O)N2CCCc3ccccc32)cc1	-5.1%	-2.6%
O=C(Nc1ccc(C(=O)NC2CCCCC2)cc1)c1cncc(Br)c1	i	-0.5%
COCCN1C(=O)N[C@@H](CCc2ccccc2)[C@@H](C(=O)OC)[C@H]1C	i	-2.4%
CC(=O)C(Sc1nc(-c2ccccc2Cl)nc2c1c(=O)n(C)c(=O)n2C)C(=O)N(C)C (configuration not stated)	-4.7%	-12.4%
O=C(CSc1nnc(-c2cccc(Br)c2)o1)N1CCOCC1	?	?
C#CCOCCOCCOCCNc1nc(N2CCN(C(=O)CCCCCCCCCCNC(=O)Cn3cc(C[C@@H](C)O)nn3)CC2)nc(N2CCN(C(=O)CCCCCCCCCCNC(=O)[C@H](CCCCN)n3cc(C[C@@H](C)CC)nn3)CC2)n1	?	10µM*
COc1ccc(/C=N/NC(=O)c2sc(C)nc2C)cc1	-27.1%	-21.2%
O=C(/C=C/c1cccc([N+](=O)[O-])c1)NCc1cccnc1	-12.7%	-15.4%
O=C(C1CCCN(S(=O)(=O)c2cccs2)C1)N1CCN(C2CCCCC2)CC1 (configuration not stated)	nt	-22.4%
Cc1cc(C(=O)O)ccc1N/C=C1\CCCC(C)C1=O (configuration not stated)	nt	-25.8%
COc1cccc(CN(C)C(=O)CN2C(=O)NC3(CCCc4ccccc43)C2=O)c1 (configuration not stated)	-4.4%	-14.1%
CCCCCc1c(O)nc(SCCN2CCOCC2)[nH]c1=O	i	-3.1%
COC(=O)[C@]1(C)CCC[C@@]2(C)C3CC[C@@]4(C)C[C@]3(CCC21)CC(=O)N4 (some centres not stated)	i	-23.9%
CN(C)S(=O)(=O)Oc1ccsc1C(=O)Nc1ccc(Br)cc1	-6.6%	-9.5%
CCc1ccc(NC(=O)C2CCN(S(C)(=O)=O)CC2)cc1	-8.3%	-16.1%

(list continues)
SMILES	VACV mCherry inh	Vaccinia Venus
COc1cc2c(cc1OC)C(c1c(-c3c(Cl)cccc3Cl)noc1C)=NCC2	-5.7%	-22.9%
CCN1C(=O)[C@H]2[C@@H](c3ccc(OC)cc3)N[C@]3(CCCN(Cc4cccn4C)C3=O)[C@H]2C1=O	-7.7%	-16.4%
O=C(NCC(=O)N(c1cccnc1)C(C(=O)NC1CCCC1)c1ccco1)c1cccs1 (configuration not stated)	-4.5%	-8.7%
O=C(Nc1c(C(=O)N2CCCCC2)cnn1-c1ccccc1)c1ccccc1F	i	-11.4%
O=[N+]([O-])c1ccc(N2CCN(S(=O)(=O)c3ccc(Cl)cc3)CC2)cc1NCC1CCCO1 (configuration not stated)	-13.3%	-6.4%
CN(C)c1ccc(CNC(=O)C2CCN(S(=O)(=O)c3ccc4c(c3)oc(=O)n4C)CC2)cc1	-2.1%	4.6%

Compound profiles, as listed above:
O=C(NCC(=O)N(c1cccnc1)C(C(=O)NC1CCCC1)c1ccco1)c1cccs1 (configuration not stated) across the screens: VACV mCherry inh = -4.5%; Vaccinia Venus = -8.7%
CCN1C(=O)[C@H]2[C@@H](c3ccc(OC)cc3)N[C@]3(CCCN(Cc4cccn4C)C3=O)[C@H]2C1=O across the screens: VACV mCherry inh = -7.7%; Vaccinia Venus = -16.4%
